High-throughput results (PubChem)
Vaccinia stage: blocks a specific stage of Vaccinia orthopoxvirus infection, primary screen, cell-based, single point; activity change (mCherry), % (concentration not given with the values); AID 1053133, 2014; Vaccinia-infected cells, mCherry/Venus stage reporter fluorescence; hits give low values; some inactives read as strong as hits; 89,000 compounds, 0.01% hits;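 active = mCherry past -33% and 40 or more points under the early reporter, replicates agreeing; inconclusive = past -33% without that gap or agreement; tested in A549 cells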;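 also: scaled between vehicle wells and reference inhibitor wells; 23 nL library stock went into each well; one replicate is shown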
Vaccinia stage Venus: further read-out of Vaccinia stage, marked with its call; activity change (Venus), %; measured here: Venus reporter, other viral stage;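 negative = less Venus signal; first of two replicates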
An asterisk follows results filed as active; u = inconclusive; x = no result given. Some of the compounds tested; the hit share may differ from the screen's.

SMILES	Vaccinia stage	Vaccinia stage Venus
N#C[C@H]1[C@@H](c2ccc(C#Cc3ccccc3F)cc2)[C@@H](CO)N1C(=O)C1CC1	13.8	2.6
COc1cccc(C#Cc2ccc3c(c2)O[C@H](CN(C)C)[C@H](C)CN([C@@H](C)CO)S3(=O)=O)c1	u	x
C[C@H](CO)N1C[C@H](C)[C@H](CN(C)S(=O)(=O)c2cccs2)Oc2c(NS(=O)(=O)c3ccc(Cl)cc3)cccc2C1=O	-2.5	-3.5
O=C(C[C@H]1C[C@H]2c3cc(NC(=O)C4CCOCC4)ccc3O[C@H]2[C@H](CO)O1)NCCN1CCCCC1	24.7	20.5
C[C@@H]1CN([C@H](C)CO)C(=O)c2cccc(NC(=O)C3CCOCC3)c2O[C@H]1CN(C)CC1CCCCC1	-3.8	-0.8
C/C=C/c1cnc2c(c1)C(=O)N([C@@H](C)CO)C[C@@H](C)[C@@H](CN(C)Cc1ccc3c(c1)OCO3)O2	-21.7	-14.0
CCCNC(=O)N1[C@@H](C#N)[C@@H](c2ccc(-c3cccc(OC)c3)cc2)[C@@H]1CO	-13.3	-8.1
Cc1ccc(S(=O)(=O)N(C)C[C@@H]2Oc3ccc(NC(=O)Nc4ccc5c(c4)OCO5)cc3CC(=O)N([C@@H](C)CO)C[C@H]2C)cc1	9.6	3.2
C[C@@H](NC(=O)C[C@H]1C[C@H]2c3cc(NC(=O)Nc4ccccc4F)ccc3O[C@H]2[C@@H](CO)O1)c1ccccc1	4.6	-1.4
C[C@@H]1CN([C@H](C)CO)C(=O)c2cc(NS(=O)(=O)c3cccs3)ccc2O[C@@H](C)CCCCO[C@H]1CN(C)Cc1ccc(C(F)(F)F)cc1	u	x
O=C(Nc1ccc2c(c1)[C@@H]1C[C@@H](CC(=O)N3CCCCC3)O[C@H](CO)[C@@H]1O2)C1CCC1	-5.6	-1.0
CCC(=O)N1[C@H](CO)[C@H](c2ccc(C3=CCCC3)cc2)[C@H]1CNCC1CCCC1	-21.9	-8.3
N#C[C@@H]1[C@H](c2ccc(C3=CCCCC3)cc2)[C@@H](CO)N1C(=O)CN1CCOCC1	-5.3	-14.1
Cc1cccc(S(=O)(=O)N(C)C[C@H]2OCc3cnnn3CCCC(=O)N([C@@H](C)CO)C[C@H]2C)c1	14.9	15.9
C[C@H]1CN([C@@H](C)CO)S(=O)(=O)c2ccc(-c3cccnc3)cc2O[C@H]1CN(C)CC1CCOCC1	-0.7	-1.6
COCC(=O)N1CC[C@@H]2[C@H]1c1cc(-c3cccc(OC)c3)ccc1N(C)[C@H]2CO	-12.5	-13.6
COCC#Cc1cnc2c(c1)C(=O)N([C@@H](C)CO)C[C@H](C)[C@@H](CN(C)C(=O)c1cnccn1)O2	14.6	6.7
COc1ccc2c3c([nH]c2c1)[C@H](CO)N(S(=O)(=O)c1ccc(C)cc1)CC31CN(Cc2ccccc2)C1	-33.5	-25.6
Cc1noc(C)c1NC(=O)Nc1cccc2c1O[C@H](CN(C)C(=O)Nc1ccccc1)[C@@H](C)CN([C@@H](C)CO)C2=O	2.8	6.3
C[C@H]1CN([C@@H](C)CO)C(=O)c2cccc(N(C)C)c2O[C@@H]1CN(C)Cc1ccc(C(=O)O)cc1	7.8	-0.3
C[C@H](CO)N1C[C@H](C)[C@H](CN(C)Cc2ccc(C(=O)O)cc2)Oc2ccc(NC(=O)Nc3ccc4c(c3)OCO4)cc2CC1=O	26.2	16.9
COc1ccccc1S(=O)(=O)N(C)C[C@H]1Oc2cc(C#CCC(C)C)ccc2S(=O)(=O)N([C@@H](C)CO)C[C@@H]1C	u	x
COC(=O)C[C@H]1CC[C@H]2[C@H](COc3ccc(NC(=O)C4CC4)cc3C(=O)N2C)O1	16.9	8.7
COCc1cn(CC[C@H]2CC[C@@H](NC(=O)Nc3ccccc3)[C@@H](CO)O2)nn1	15.2	15.0

By substructure, the entries above containing sulfur.
SMILES	Vaccinia stage	Vaccinia stage Venus
COc1cccc(C#Cc2ccc3c(c2)O[C@H](CN(C)C)[C@H](C)CN([C@@H](C)CO)S3(=O)=O)c1	u	x
C[C@H](CO)N1C[C@H](C)[C@H](CN(C)S(=O)(=O)c2cccs2)Oc2c(NS(=O)(=O)c3ccc(Cl)cc3)cccc2C1=O	-2.5	-3.5
Cc1ccc(S(=O)(=O)N(C)C[C@@H]2Oc3ccc(NC(=O)Nc4ccc5c(c4)OCO5)cc3CC(=O)N([C@@H](C)CO)C[C@H]2C)cc1	9.6	3.2
C[C@@H]1CN([C@H](C)CO)C(=O)c2cc(NS(=O)(=O)c3cccs3)ccc2O[C@@H](C)CCCCO[C@H]1CN(C)Cc1ccc(C(F)(F)F)cc1	u	x
Cc1cccc(S(=O)(=O)N(C)C[C@H]2OCc3cnnn3CCCC(=O)N([C@@H](C)CO)C[C@H]2C)c1	14.9	15.9
C[C@H]1CN([C@@H](C)CO)S(=O)(=O)c2ccc(-c3cccnc3)cc2O[C@H]1CN(C)CC1CCOCC1	-0.7	-1.6
COc1ccc2c3c([nH]c2c1)[C@H](CO)N(S(=O)(=O)c1ccc(C)cc1)CC31CN(Cc2ccccc2)C1	-33.5	-25.6
COc1ccccc1S(=O)(=O)N(C)C[C@H]1Oc2cc(C#CCC(C)C)ccc2S(=O)(=O)N([C@@H](C)CO)C[C@@H]1C	u	x

(further entries)
SMILES	Vaccinia stage	Vaccinia stage Venus
C[C@H]1CN([C@@H](C)CO)C(=O)c2cccc(NS(C)(=O)=O)c2O[C@H]1CN(C)Cc1ccc(Oc2ccccc2)cc1	11.7	5.2
COc1ccc(S(=O)(=O)N(C)C[C@H]2OCCCC[C@H](C)Oc3ccc(NS(=O)(=O)c4cccs4)cc3C(=O)N([C@H](C)CO)C[C@H]2C)cc1	-14.3	-3.8
NC(=O)C1=C[C@H](c2ccc(Br)cc2)C[C@H](OCc2ccc(CO)cc2)O1	6.0	10.1
C[C@@H]1CCCCO[C@H](CN(C)S(=O)(=O)c2cccs2)[C@@H](C)CN([C@H](C)CO)C(=O)c2cc(NC(=O)Nc3ccccc3)ccc2O1	3.3	8.2
CCCNC(=O)[C@@H]1[C@@H](CO)[C@@H]2Cn3c(ccc(-c4ccc(OC)cc4)c3=O)[C@@H]2N1CCC	5.7	7.2
CO[C@H]1CN(C)C(=O)c2ccc(NC(=O)c3cccc(F)c3)cc2OC[C@@H](C)N(CC2CC2)C[C@H]1C	2.1	1.8
CC(C)CC#Cc1ccc([C@H]2[C@H]3CN(C(=O)Cc4ccccc4)CC(=O)N3[C@H]2CO)cc1	-7.7	-14.3
CCC(=O)N1CC2(C1)CN(C(=O)c1cnccn1)[C@H](CO)c1c2c2ccc(OC)cc2n1C	5.6	10.8
CCC(=O)N1CC2(C1)[C@H](c1ccc(-c3ccc(F)cc3)cc1)[C@@H](CO)N2S(C)(=O)=O	-18.3	-8.8
CCCNC(=O)C[C@@H]1CC[C@@H]2[C@H](COC[C@@H](O)CN2Cc2cccc(F)c2)O1	3.1	8.1
COCC#Cc1cnc2c(c1)C(=O)N([C@@H](C)CO)C[C@H](C)[C@@H](CN(C)C(=O)c1cccnc1)O2	11.0	11.7
C[C@@H]1CN([C@H](C)CO)C(=O)c2cc(NC(=O)c3ccccc3)ccc2O[C@@H](C)CCCCO[C@H]1CN(C)S(=O)(=O)c1ccc(Cl)cc1	-11.2	-7.7
C/C=C/c1ccc2c(c1)[C@H]1[C@H](CCN1S(=O)(=O)c1ccc(C)cc1)[C@H](CO)N2	-27.6	-23.8
N#C[C@H]1[C@H](c2ccccc2-c2ccccc2F)[C@@H](CO)N1C(=O)C1CCC1	23.2	12.0
COCC(=O)Nc1ccc2c(c1)[C@H]1C[C@H](CC(=O)NCc3ccc(OC)cc3)O[C@H](CO)[C@H]1O2	8.3	5.1
CCCN1[C@@H]2c3ccc(-c4cccnc4)c(=O)n3C[C@@H]2[C@@H](CO)[C@@H]1C(=O)NC1CCCC1	7.9	11.3
COc1cccc(-c2ccc([C@H]3[C@@H](CO)N(C(C)=O)C34CN(C(C)=O)C4)cc2)c1	14.9	14.8
Cc1ccc(-c2cnc3c(c2)C(=O)N([C@H](C)CO)C[C@H](C)[C@H](CN(C)CC2CCOCC2)O3)cc1	-2.1	1.0
C[C@H](CO)N1C[C@H](C)[C@@H](CN(C)S(=O)(=O)c2cn(C)cn2)Oc2ccc(NS(C)(=O)=O)cc2C1=O	21.9	16.1
CO[C@H]1CN(C)C(=O)c2ccc(NS(=O)(=O)CC(F)(F)F)cc2OC[C@@H](C)N(C)C[C@H]1C	6.3	5.1
CCCNC(=O)N1CC2(C1)[C@H](c1ccccc1)[C@H](CO)N2C(=O)C1CC1	3.8	8.7
CNC[C@H]1Oc2c(NC(=O)Nc3ccc(C(F)(F)F)cc3)cccc2C(=O)N([C@H](C)CO)C[C@@H]1C	-22.3	-10.5
O=C(C[C@@H]1CC[C@@H]2[C@H](COC[C@@H](O)CN2C(=O)Nc2ccc(Cl)c(Cl)c2)O1)NCc1ccc(Cl)cc1	u	x
Cc1noc(C)c1S(=O)(=O)N(C)C[C@@H]1Oc2c(NC(=O)c3cnccn3)cccc2C(=O)N([C@@H](C)CO)C[C@@H]1C	4.0	5.0
CC(C)NC(=O)Nc1cccc2c1O[C@H](CN(C)Cc1ccc(C(=O)Nc3ccccc3N)cc1)[C@H](C)CN([C@H](C)CO)C2=O	16.2	7.7
C[C@H]1CN([C@@H](C)CO)C(=O)c2cccc(NC(=O)c3ccc(-c4nccs4)cc3)c2O[C@H]1CN(C)Cc1ccc(C(F)(F)F)cc1	-21.1	-17.6
CO[C@H]1CN(C)C(=O)c2ccc(NS(=O)(=O)c3cccc(Cl)c3)cc2OC[C@H](C)NC[C@@H]1C	20.6	19.8
C[C@@H]1CN([C@@H](C)CO)S(=O)(=O)c2ccc(C3=CCCC3)cc2O[C@@H]1CN(C)S(=O)(=O)c1cn(C)cn1	5.0	-4.0
C[C@H](CO)N1C[C@H](C)[C@@H](CN(C)C(=O)Nc2ccc(F)cc2)Oc2ccc(NS(=O)(=O)c3ccc(F)cc3)cc2C1=O	15.3	12.2
CC(=O)N1CC(=O)N2[C@H](CO)[C@H](c3ccc(-c4ccc(C(=O)N(C)C)cc4)cc3)[C@@H]2C1	13.0	13.2
C[C@@H]1CN([C@@H](C)CO)S(=O)(=O)c2ccc(-c3cccnc3)cc2O[C@@H]1CN(C)Cc1ccncc1	5.3	-4.0
COCC(=O)N1CCCCN2[C@H](C1)[C@@H](c1ccc(C#Cc3ccccc3)cc1)[C@@H]2CO	-24.5	-24.7
COc1ccc(NC(=O)Nc2ccc3c(c2)C(=O)N([C@@H](C)CO)C[C@@H](C)[C@@H](CN(C)Cc2ccccc2)OCCCC[C@H](C)O3)cc1	u	x
CC(=O)N(C)C[C@@H]1Oc2ncc(-c3ccc(C)cc3)cc2C(=O)N([C@H](C)CO)C[C@@H]1C	16.4	11.4
COc1cccc(-c2ccc3n(c2=O)C[C@@H]2[C@@H](CO)[C@H](C(=O)NC4CCC4)N(S(C)(=O)=O)[C@H]32)c1	3.8	5.0
C[C@@H]1CCCCO[C@H](CN(C)C(=O)Nc2cccc3ccccc23)[C@H](C)CN([C@@H](C)CO)C(=O)c2cc(NC(=O)c3ccncc3)ccc2O1	12.9	24.4
C[C@@H]1CCCCO[C@H](CN(C)C(=O)Nc2ccccc2)[C@@H](C)CN([C@H](C)CO)C(=O)c2cc(NC(=O)c3ccncc3)ccc2O1	4.1	-3.2
COc1ccc(-c2ccc(C3[C@H]4CNC[C@@H]3N4Cc3cc(F)ccc3F)cc2)cc1 (some centres undefined)	9.5	3.2
CO[C@@H]1CN(C)C(=O)c2cc(NS(C)(=O)=O)ccc2OC[C@@H](C)N(Cc2nccs2)C[C@H]1C	11.1	0.2
C[C@H]1CN([C@@H](C)CO)C(=O)c2cc(-c3cncnc3)cnc2O[C@H]1CN(C)C(=O)Cc1cccnc1	14.4	5.9
C[C@H](CO)N1C[C@H](C)[C@H](CN(C)C(=O)C2CCOCC2)Oc2ncc(-c3ccccc3)cc2C1=O	18.9	9.1
COc1ccc(NC(=O)Nc2ccc3c(c2)C(=O)N([C@H](C)CO)C[C@@H](C)[C@@H](CN(C)S(=O)(=O)c2ccccc2)OCCCC[C@H](C)O3)cc1	19.4	4.5
C[C@@H]1CN([C@@H](C)CO)C(=O)Cc2cc(NS(C)(=O)=O)ccc2O[C@@H]1CN(C)C	7.8	7.7
COc1cccc(C#Cc2ccc([C@H]3[C@@H](C#N)N[C@@H]3CO)cc2)c1	10.4	12.0
C[C@H](CO)N1C[C@H](C)[C@@H](CN(C)S(=O)(=O)c2ccc(Cl)cc2)Oc2c(NC(=O)C3CCOCC3)cccc2C1=O	5.7	5.8
Cc1ccccc1S(=O)(=O)N1C[C@H](O)COC[C@@H]2O[C@H](CC(=O)N3CCC(Cc4ccccc4)CC3)CC[C@H]21	u	x
CC(C)CC#Cc1cnc2c(c1)C(=O)N([C@H](C)CO)C[C@H](C)[C@@H](CN(C)Cc1ccccc1)O2	u	x
Cc1cccc(-c2ccc([C@H]3[C@H](CO)N4CCCCN(S(=O)(=O)c5cccs5)C[C@@H]34)cc2)c1	-17.7	-14.3
CCC(=O)N(CC)C[C@@H]1[C@@H](c2ccc(-c3cccnc3)cc2)[C@H](CO)N1C(C)=O	8.0	16.4
CCOC(=O)c1cn(C[C@H](Cc2ccccc2)NC(=O)N[C@H](CO)CCc2oc(C(C)=O)c(C(=O)OC)c2C(=O)OC)nn1	17.2	12.1
O=C(C[C@@H]1CC[C@@H]2[C@H](COC[C@@H](O)CN2C(=O)c2ccccn2)O1)NC1CCC1	10.2	17.4
C[C@@H]1CN([C@H](C)CO)C(=O)c2cccc(NC(=O)C3CCCCC3)c2O[C@H]1CN(C)C(=O)Nc1ccccc1	-6.6	0.8
Cc1noc(C)c1S(=O)(=O)N(C)C[C@H]1Oc2ccc(NC(=O)CCC(F)(F)F)cc2CC(=O)N([C@H](C)CO)C[C@H]1C	18.9	5.3
CO[C@H]1CN(C)C(=O)c2cc(NC(=O)C3CCCCC3)ccc2OC[C@H](C)NC[C@H]1C	7.8	11.4
C[C@H]1CN([C@@H](C)CO)C(=O)CCCn2cc(nn2)CO[C@@H]1CN(C)Cc1ccncc1	11.7	12.9
CN1C(=O)c2cc(NC(=O)C3CCOCC3)ccc2OC[C@@H]2O[C@@H](CC(=O)NCCc3ccncc3)CC[C@H]21	10.1	0.8
